# SmPrx2 inh = blocks S. mansoni peroxiredoxin 2 enzymatic activity | S. mansoni Prx2 activity coupled to TGR/GSH (TGR is thioredoxin glutathione reductase), NADPH fluorescence loss, qHTS; some inactives read as strong as hits | Potency, µM | 65,000 compounds, 0.07% hits | AID 448; active means full or partial inhibition curve with a strong effect at the top dose; inconclusive means weaker partial or single-point curve; inactive means no accepted curve; also: series up to 57 µM; many of its hits are not listed in these tables
#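 Enzyme mix: 100 uM NADPH, 25 nM TGR, 700 uM GSH, 50 nM Prx2 in 100 mM phosphate pH 7.4, 10 mM EDTA, 0.01% Tween-20. 15 min RT with compound; NADPH/GSH added, H2O2 starts reaction; NADPH fluorescence read 8 min.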
# Anthrax LT inh = blocks cellular internalization of anthrax lethal toxin | Cells, anthrax lethal toxin internalization, FRET ratio (460/530) | Potency, µM (top dose mostly 40 µM), inactives show top-dose activity change, negative = inhibition, most hits filed as inhibitors | 70,000 compounds, 0.67% hits; active = well fitted falling ratio curve with the 530 nm signal flat; inconclusive = other ratio curves, or a change in one channel alone; inactive = flat curves in the ratio and both channels; the % refers to the ratio; also: % is scaled to controls: 0 for no effect and ±100 for the full control effect; nearly all actives have a fitted effect of over 50% in size; tested in ME-180 cells; beta-lactamase reporter
# Starred values were filed as active, the others as inactive; ? = inconclusive; . = no result given; & = joins results of further samples; [ ] = remark or other dose. Potency is read from the fitted curve at half-maximal effect.
SMILES,SmPrx2 inh,Anthrax LT inh
COC(=O)[C@@]1(Cc2ccc(OC)cc2)[C@H]2c3cc(C(=O)N4CCCC4)n(CCc4ccccn4)c3C[C@H]2CN1C(=O)c1ccccc1,>57,?
O=C1CNC(=O)c2c(nc3n2CCC3)N1,>57,-16%
COC(=O)c1cc2sccc2n1CC(=O)N1CCCc2ccccc21,>57,10µM*
O=c1c2c3nc4ccccc4nc3n(CCN3CCOCC3)c2ncn1CCN1CCOCC1,>57,0%
COc1cccc(OC)c1NC(=O)Cc1nn(C)c(=O)c2ccccc12,>57,3%
Cc1c(CNCc2cccs2)c(C(=O)O)c(C)n1Cc1ccccc1,>57,?
CO[C@H]1COC(=O)[C@H](C)NC(=O)[C@@H](C)COC(=O)[C@H]2CCCN2C(=O)C/C=C\[C@H]1C,.,1%[8 µM]
CCCCCN(CCCCC)C(=O)[C@H](CCC(=O)O)NC(=O)c1ccc(Cl)c(Cl)c1,>57&>57,-3%[3.58 µM]
O=S(=O)(c1ccccc1)N1CN2CN(C1)CN(S(=O)(=O)c1ccccc1)C2,>57,-5%[8 µM]
CCc1c(C(=O)N2CCOCC2)csc1C,>57,7%
CC(C)(C)NC(=O)C(c1ccco1)N(Cc1ccc(F)cc1)C(=O)c1snc(C(N)=O)c1N (centres undefined),>57,-13%
CCOC(=O)c1ncn2c1CN(C)C(=O)c1cc(N=[N+]=[N-])ccc1-2,.,-10%
CCC(=O)Nc1ccc(C(=O)c2ccccc2)cc1,.,-19%
CC1=CC(=C2C(=O)c3ccccc3C2=O)C=C(C)N1Cc1ccco1,>57,-3%
C=CCSC1=N/C(=C\c2cc(OC)c3c(c2)OCO3)C(=O)S1,.,?
O=C(NCCCn1ccnc1)c1cn(Cc2ccc(F)cc2)nn1,>57,1%
CC1=Nc2ccccc2N=C(NC(=O)CSc2nnnn2-c2ccccc2)C1c1ccccc1 (centres undefined),>57,?
COc1ccc(C)c(Cn2c(-c3nonc3N)nc3ccccc32)c1,>57,.
CCCCOc1cccc(C(=O)Nc2ccc(N3CCN(CC)CC3)cc2)c1,>57,2%
CCn1c(SCC(=O)C(C)(C)C)nnc1-c1cccnc1,>57,.
CCN(CCCNC(=O)C1CCC(=O)N1Cc1ccc(F)cc1)c1cccc(C)c1 (centres undefined),>57,-14%
COc1cccc(NC(=O)c2ccc(CN3CCN(c4ccccc4)CC3)cc2)c1,>57,10µM*
CC1(c2ccc3c(c2)OCO3)NC(=O)N(CC(=O)NCCC2=CCCCC2)C1=O (centres undefined),>57,-8%
CCn1cc(C(=O)O)c(=O)c2cc(OC)ccc21,>57,-13%
O=C(CCSc1nnc(-c2ccncc2)o1)Nc1ccc(Cl)cc1,>57,-4%
# Continued:
SMILES,SmPrx2 inh,Anthrax LT inh
CC(C)(C)c1ccc(-c2nnc3sc(-c4ccccn4)nn23)cc1,>57,?
Cc1ccc(S(=O)(=O)N2CCOCC2)cc1C(=O)N1C(=O)c2cccc(N)c2C1=O,>57,-11%
COc1ccc(N2C(=O)CCC2=O)cc1,>57,0%
O=C(CSc1nc2ccccc2c(=O)[nH]1)N1CCCCC1,>57,2%
CCOC(=O)C1=C(N)Oc2ccc(Br)cc2[C@@H]1[C@@H](C#N)C(=O)OCC,39*,?
COc1ccc(Cn2c3nc4ccccc4nc3c3c(=O)n(Cc4ccco4)c(C)nc32)cc1,>57,?
CC1CN(C(=O)c2cc3cc(Cl)cc(Cl)c3oc2=O)CC(C)O1 (centres undefined),>57,-2%
COC(=O)NCC(C)OC(=O)Nc1cccc(Cl)c1 (centres undefined),>57,7%
COC(=O)c1ccc(CSc2nc3c(cnn3-c3ccc(Cl)cc3)c(=O)[nH]2)o1,>57,12%
O=C(c1ccco1)c1cn[nH]c1-c1ccc(Cl)cc1O,>57,27%
CCOC(=O)c1ccc(N2C(=O)c3n[nH]c(C)c3C2c2ccc(OC)cc2)cc1 (centres undefined),>57,?
CCCCOc1ccc(/C(O)=C2/C(=O)C(=O)N(CCCOC)C2c2ccncc2)cc1 (centres undefined),>57,-12%
CN1C(=O)c2ccccc2N(C)C1c1cccs1 (centres undefined),>57,16%
O=C1C=C[C@@H](O)[C@H]2[C@@H]3C(=O)N(C4CCCCC4)C(=O)[C@@H]3CC[C@H]12,.,?
Cc1cc(C(=O)OCC(=O)N2C(C)CCCC2C)c(C)o1 (centres undefined),>57,?
COc1ccc2[nH]c(=O)c(CN(C(=O)C3CCCO3)c3cccc(C)c3)cc2c1 (centres undefined),>57,?
O=C(C1CC1)N1CCc2cc(S(=O)(=O)N(CCO)Cc3ccccc3)ccc21,>57,-4%
COc1ccc(N2CC(C(=O)Nc3ccc(F)cc3F)CC2=O)cc1 (centres undefined),.,-4%
CC(C)(C)C(=O)C1C(=O)c2ccccc2C1=O,.,7%
COC(=O)[C@H](C)NC(=O)Nc1cccc(C(F)(F)F)c1,>57,?
O=C(Nc1ccc(NC(=O)C2CC2)nc1)c1cccc(F)c1,>57,?
CCOc1ccccc1C(=O)NCCC(=O)O,>57,13%
COCC(C)NC(=O)c1ccc(N(C)C)cc1 (centres undefined),.,-9%
c1cnc(N2CCN(Cc3c[nH]c4ccccc34)CC2)nc1,>57,.
Cc1ccc(S(=O)(=O)CC(C)N2CCOCC2)c(S(=O)(=O)CC(C)N2CCOCC2)c1 (centres undefined),.,-10%

# Sorted by molecular weight (high to low): three of the compounds above
SMILES,SmPrx2 inh,Anthrax LT inh
COc1ccc(N2CC(C(=O)Nc3ccc(F)cc3F)CC2=O)cc1 (centres undefined),.,-4%
O=C1C=C[C@@H](O)[C@H]2[C@@H]3C(=O)N(C4CCCCC4)C(=O)[C@@H]3CC[C@H]12,.,?
COCC(C)NC(=O)c1ccc(N(C)C)cc1 (centres undefined),.,-9%

# Other records
SMILES,SmPrx2 inh,Anthrax LT inh
CCN(CC)S(=O)(=O)c1cccc(C(=O)Nc2cccnc2)c1,>57,21%
CC(C)(Oc1ccc(Cl)cc1)C(=O)O,>57&>57,?
O=C(COc1ccccc1)N1CCN(c2nnc(-c3ccccc3)c3ccccc23)CC1,>57,?
COc1ccccc1N1CCN(CCN(C(=O)c2ccc(F)cc2)c2ccccn2)CC1,>57,?
COc1cccc(-n2c(C)nnc2SCC#N)c1,>57,-12%
CCOC(=O)c1ccc(NS(=O)(=O)c2ccc(SC)cc2)cc1,>57,.
O=S(=O)(c1cccc(-c2nn3c(-c4ccncc4)nnc3s2)c1)N1CCOCC1,>57,10%
COc1ccc(-c2ccc(-c3nnn(CC(C)=O)n3)cc2)cc1,>57,-8%
COc1ccc(NC2c3ccccc3C(=O)N2c2cccnc2)cc1Cl (centres undefined),>57,12%
O=C(NCc1ccc2c(c1)OCO2)c1nn2cccnc2c1Cl,>57,.
CN(c1ccc(C(=O)NCCC2=CCCCC2)cc1)S(C)(=O)=O,>57,-3%
Cc1cc(=O)n2nc(N3CCCC(C(=O)NCc4ccco4)C3)sc2n1 (centres undefined),>57,-2%
Nc1nc2n(n1)C(c1ccccc1Cl)CC(c1ccc(F)cc1)N2 (centres undefined),>57,4%
O=[N+]([O-])c1ccc(O)c([N+](=O)[O-])c1,.,-5%
CCOC(=O)C(NC(C)=O)(N1CCOCC1)C(F)(F)F (centres undefined),>57,5%
COC(=O)N1[C@H](C)C=C[C@]1(Cc1ccccc1)C(=O)NCc1ccc(N(C)C)cc1,.,5%
CCOC(=O)c1sc2nc3n(c(=O)c2c1C)CCC(C)CC3 (centres undefined),>57,-11%
CC(=O)n1cc(C2C(=O)CC(C)(C)CC2=O)c2ccccc21,.,-5%
C1=CC2C3C=CC(C3)C2C1 (centres undefined),.,-20%
CCNc1nc(NC(C)C)nc(N(C#N)CCOc2ccc(Cl)cc2Cl)n1,>57,?
CCOC(=O)N1CCC(N2CC34C=CC(O3)C(C(=O)Nc3ccc(OCC)cc3)C4C2=O)CC1 (centres undefined),>57,-3%
N=c1sccn1CC(=O)Nc1ccc2c(c1)CCC2,>57,?
COc1ccc2[nH]cc(CCNc3ccnc(-c4c(C)noc4C)n3)c2c1,>57,-8%
O=C(NCCCN=C1NS(=O)(=O)c2ccccc21)c1ccc(S(=O)(=O)N2CCCCC2)cc1,>57,-15%
COc1ccc(-c2nc3oc4cc(OC)ccc4c(=O)c3c(=O)n2Cc2ccco2)cc1,>57,-11%
# (continued)
SMILES,SmPrx2 inh,Anthrax LT inh
CCCc1nnc(NC(=O)c2cccc(OC)c2)s1,>57,18%
COc1cc(C(=O)NCc2nnc(SCC(=O)N3CCc4ccccc43)o2)cc(OC)c1OC,>57,17%
O=c1[nH]c2sc3c(c2c2nncn12)CCCC3,>57,?
CC1CC(C)CN(CCCNC(=O)c2ccc3c(c2)NC(=O)C(N2CCCCC2)S3)C1 (centres undefined),>57,?
COCc1cc(C)nc2sc3c(=O)oc(C)nc3c12,>57,11%
COC(=O)CN(Cc1ccco1)S(=O)(=O)c1ccccc1,>57,-8%
CCOc1ccc(C2c3c(oc4ccccc4c3=O)C(=O)N2CCCN2CCOCC2)cc1OCC (centres undefined),>57,1%
COc1ccc(C(=O)OCn2nnc3ccccc3c2=O)cc1OC,>57,-5%
COC(=O)C1CCN(c2cc(=O)n(-c3ccc(OC)cc3)c(=O)[nH]2)CC1,>57,-5%
C=CCOC(=O)C1=C(C)OC(N)=C(C(=O)OCC)C12C(=O)N(CC(N)=O)c1ccccc12 (centres undefined),>57,-9%
CSc1nsc(SC)c1NC(=O)Nc1ccccn1,>57,0%
N#CCc1ccc(NS(=O)(=O)c2cccs2)cc1,>57,-8%
Cc1cn(C2CC3OCC3O2)c(=O)[nH]c1=O (centres undefined),>57,-3%
CC(C)CCNC(=O)Cn1cc2c(n1)CCCCC2,>57,-8%
COc1ncc2nc(-c3ccc(Cl)cc3)c(=O)n(C[C@H]3CCCO3)c2n1,>57,-17%
COCCNc1ncnc2ccc(-c3c(C)noc3C)cc12,>57,?
O=C(O)c1cc2c(s1)CCCC2,>57,0%
O=C(Cc1ccccc1)Nc1ccccc1N1CCN(c2ccccc2)CC1,>57,?
CN(C)CCNc1oc(COc2cccc(Cl)c2)nc1C#N,>57,-7%
COc1cc(C2C(C#N)=C(N)Oc3n[nH]c(C)c32)cc2c1OCO2 (centres undefined),>57,4%
N#Cc1ccc(COC(=O)CSc2nnc(C3CCCCC3)n2N)cc1,>57,-12%
CCOC(=O)CSc1nc2ccccc2n1CC(=O)NC(C)(C)C,>57,-6%
CC(=O)NC(Cc1ccc(F)cc1)C(=O)O (centres undefined),>57,-24%
COc1ccc(Cn2nnc3c(=O)[nH]c(C4CCCN(C(=O)c5ccccc5)C4)nc32)cc1 (centres undefined),>57,?
Nc1cc(=O)[nH]c(SCC(=O)Nc2ccc(Br)cc2)n1,>57,2%
# Next part:
SMILES,SmPrx2 inh,Anthrax LT inh
Cc1ccc(CNC(=O)CCCNC(=O)c2ccc(Cl)cc2)n1C,>57,-20%
Cc1ccc(C)c(N2CCN(Cc3nnnn3C3CCCCC3)CC2)c1,>57,2%
CCc1ccc(NC(=O)c2cc(-c3ccc(OC)cc3)on2)cc1,>57,-1%
CCOC(=O)C1C(=O)CC(C)(O)C(C(=O)OCC)C1c1ccc2c(c1)OCO2 (centres undefined),>57,-6%
C[C@@H]1C=C[C@](Cc2ccccc2)(C(=O)O)N1C(=O)c1ccccc1,.,-17%
O=C(COC(=O)c1n[nH]c2ccccc12)Nc1ccc(S(=O)(=O)N2CCCC2)cc1,>57,-8%
OC(CN1CCCCC1)Cn1c(C(F)(F)F)nc2ccccc21 (centres undefined),>57,-2%
CN1CC[n+]2cnc3ccccc3c21,.,-19%
COC(=O)Cn1c(CN2CCOCC2)nc2c1c(=O)[nH]c(=O)n2C,>57,-9%
COc1ccc(S(=O)(=O)N2CCN(c3cc(-c4ccccc4)nc4ncnn34)CC2)cc1,>57,-8%
CC(=O)c1ccc(OCC(C)C)c(CC(C(N)=O)C(N)=O)c1,.,-2%
COc1ccc(C(=O)Nc2cc(Cl)ccc2Cl)c(OC)n1,>57,3%
COc1cccc(-c2cc(C(=O)N3CCc4ccccc4C3)no2)c1,>57,?
O=C(COc1ccc(Br)cc1)N1CCN(C2CCCC2)CC1,.,-11%

# Profiles from above. Order of values: SmPrx2 inh	Anthrax LT inh
# Entry for CCN(CC)S(=O)(=O)c1cccc(C(=O)Nc2cccnc2)c1 = >57	21%
# Entry for O=S(=O)(c1ccccc1)N1CN2CN(C1)CN(S(=O)(=O)c1ccccc1)C2 = >57	-5%[8 µM]
# Entry for COc1ccc(C(=O)OCn2nnc3ccccc3c2=O)cc1OC = >57	-5%
# Entry for CN1CC[n+]2cnc3ccccc3c21 = .	-19%
# Entry for COc1ccc(-c2nc3oc4cc(OC)ccc4c(=O)c3c(=O)n2Cc2ccco2)cc1 = >57	-11%

# Among those listed so far, 9 contain a thiophene ring, fused or not.
SMILES,SmPrx2 inh,Anthrax LT inh
COC(=O)c1cc2sccc2n1CC(=O)N1CCCc2ccccc21,>57,10µM*
Cc1c(CNCc2cccs2)c(C(=O)O)c(C)n1Cc1ccccc1,>57,?
CCc1c(C(=O)N2CCOCC2)csc1C,>57,7%
CN1C(=O)c2ccccc2N(C)C1c1cccs1 (centres undefined),>57,16%
CCOC(=O)c1sc2nc3n(c(=O)c2c1C)CCC(C)CC3 (centres undefined),>57,-11%
O=c1[nH]c2sc3c(c2c2nncn12)CCCC3,>57,?
COCc1cc(C)nc2sc3c(=O)oc(C)nc3c12,>57,11%
N#CCc1ccc(NS(=O)(=O)c2cccs2)cc1,>57,-8%
O=C(O)c1cc2c(s1)CCCC2,>57,0%

# Screening results deposited in PubChem by National Center for Advancing Translational Sciences (NCATS).

# This is a subset; the hit share may differ from the screen's.
